Screening results (PubChem BioAssay)
Arbovirus anti = antivirals against arbovirus infection, primary screen, cell-based, full library, 10K replicate subset | inhibition, % at 10 µM | 0.37% of 200,000 active | AID 1251, 2008 | arbovirus infection cell-based antiviral screen;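 active means inhibition from about 30%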;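 further: bluetongue infection of BSR cells; cell survival read as ATP light after 72 h; 0% = infected wells without compound and 100% = uninfected wells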
Mtb H37Rv = M. tuberculosis H37Rv growth inhibitors, H37Rv strain (AID 1626). inhibition, % at 10 µM, or IC50 in µM where a hit was titrated. M. tuberculosis H37Rv growth inhibition; higher % means a stronger effect. 0.95% of 220,000 active;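 active means confirmed in a dose series; inconclusive means inhibition above 80% but not taken into the dose series; inactive means below 80% or under 30% at every dose of the series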;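 further: bacteria incubated seven days before Alamar blue readout; 0% = bacteria only wells and 100% = bacteria with antibiotic wells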
YopH PTP inh = YopH tyrosine phosphatase inhibitors, primary screen, biochemical, fluorescence Ex485/Em525 | inhibition, %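 (about 10 µM by stock and volumes)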 | 0.16% of 140,000 active;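 active means inhibition of 50% or more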;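 further: controls were vehicle for no effect and minimum signal wells for full effect; inactives centre near -20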
RecA intein inh = Mtb RecA intein splicing inhibitors, primary screen, biochemical, fluorescence, HTS; Protein RecA (Mycobacterium tuberculosis (strain ATCC 25618 / H37Rv)), P9WHJ3; 0.75% of 290,000 active; cell-free RecA intein splicing; inhibition, %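 (about 9 µM by stock and volumes)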; in the data active means inhibition above about 30%; inconclusive means no clear call, values can overlap the other calls;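 further: 0% = vehicle wells and 100% = reference inhibitor control wells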
Target sequence (P9WHJ3 whole entry, looked up): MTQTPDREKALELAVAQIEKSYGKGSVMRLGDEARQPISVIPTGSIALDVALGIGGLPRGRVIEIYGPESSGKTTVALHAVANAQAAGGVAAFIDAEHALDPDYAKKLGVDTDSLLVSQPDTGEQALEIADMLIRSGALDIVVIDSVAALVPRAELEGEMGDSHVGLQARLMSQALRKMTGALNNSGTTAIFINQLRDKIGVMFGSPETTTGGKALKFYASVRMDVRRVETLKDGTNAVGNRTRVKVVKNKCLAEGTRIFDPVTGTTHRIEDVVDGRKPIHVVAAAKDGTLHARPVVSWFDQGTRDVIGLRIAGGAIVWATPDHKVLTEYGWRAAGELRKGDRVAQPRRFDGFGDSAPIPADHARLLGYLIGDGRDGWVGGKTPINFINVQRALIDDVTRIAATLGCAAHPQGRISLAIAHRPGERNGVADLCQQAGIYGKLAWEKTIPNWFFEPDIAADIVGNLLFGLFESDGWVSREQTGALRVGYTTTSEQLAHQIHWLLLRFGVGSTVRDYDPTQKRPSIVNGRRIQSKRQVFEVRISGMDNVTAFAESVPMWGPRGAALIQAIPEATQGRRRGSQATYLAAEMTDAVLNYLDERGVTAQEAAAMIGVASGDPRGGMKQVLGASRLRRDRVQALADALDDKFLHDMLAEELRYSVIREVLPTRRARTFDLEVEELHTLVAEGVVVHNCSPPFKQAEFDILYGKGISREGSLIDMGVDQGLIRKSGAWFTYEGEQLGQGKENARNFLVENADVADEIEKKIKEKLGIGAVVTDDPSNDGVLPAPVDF
Mtb betalactam = beta-lactam sensitization of Mtb H37Rv, H37Rv | 0.27% of 330,000 active | M. tuberculosis H37Rv growth with meropenem, percent inhibition; hits of this screen are not shown here | inhibition, % at 25 µM | AID 434955, 2010;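 active means about 74% or more and at least 40 points above the plate without the antibiotic, then above 30% in a dose series; inconclusive means first-round hits that could not be retested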;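 further: growth measured after seven days incubation then overnight dye step; 0% = bacteria only wells and 100% = bacteria with antibiotic; twin plates without the antibiotic show which effects depend on it; some results filed as inactive read as strong as hits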
Arbovirus anti repeat = second read-out of Arbovirus anti, no call of its own (marks repeat the call); inhibition, %; measured here: 10K subset replicate screen; many hits read low in the repeat;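 first of two repeat runs on a subset; 0% = infected and 100% = uninfected wells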
* marks the source's active call; other numbers are inactive results; ? = inconclusive; . = not tested or not shown; & = joins results of further samples. The list is partial; the hit share may differ from the screen's.

SMILES	Arbovirus anti	Mtb H37Rv	YopH PTP inh	RecA intein inh	Mtb betalactam	others
COc1ccc(CC(=O)N2CCN(C)CC2)cc1	-2	0%	14	-0.3	1
COc1ccc(-c2nc3cc(C)ccn3c2NCc2ccc3c(c2)OCO3)cc1	-2	2%	.	-2.2	0
CCOc1cc(/C=N/n2cnnc2)ccc1OC(=O)c1cccc([N+](=O)[O-])c1	12	0%	-25	1.0	4
CCN(CC)c1ccc(/C=C(\C#N)c2ccccn2)cc1	-16	10%	-16	-27	72
O=c1[nH]c(CSc2nc3ccccc3s2)nc2cc(Cl)ccc12	.	.	.	-3.1	-1
CN(C(=O)CSc1nnc(-c2cccc(F)c2)n1N)C1CCS(=O)(=O)C1 (stereo unspecified)	6	0%	.	-0.6	-11
CCOc1ccc(NC(=O)CSc2nc(=O)n(Cc3ccccn3)c3c2CCC3)cc1	.	.	.	1.9	-1
CN(C)c1ccc(C(=O)N2CCCC(CCC(=O)N3CCN(c4ccccn4)CC3)C2)cc1 (stereo unspecified)	.	.	.	-0.5	-3
O=P(c1ccccc1)(c1ccccc1)c1cc(Br)cc(Br)c1OCCO	.	.	.	0.3	15
O=C(N/N=C\c1ccccc1OCc1ccccc1)c1ccco1	-3	0%	-39	1.1	2
CN(C)CCN(C(=O)c1ccc2ccccc2c1)c1nc2cc3c(cc2s1)OCCO3	.	.	.	4.8	-3
COC(=O)Cc1[nH]n(-c2nc3ccccc3s2)c(=O)c1C(C)=O	-13	-2%	-30	-7.0	0
Cc1c(N=Nc2c(O)n(-c3ccc(Br)cc3)c(=O)[nH]c2=O)c(=O)n(-c2ccccc2)n1C	.	-6%	.	1.0	10
Cc1ccc(S(=O)(=O)Nc2ccc(Oc3cccnc3)nc2)cc1	.	-12%	.	-1.2	0
c1ccc(CN2CCN(c3cnc4ccccc4n3)CC2)cc1	.	.	.	7.7	-2
CCC(=O)c1ccc(OCC(O)CN(CCc2ccccc2)Cc2ccccc2)cc1 (stereo unspecified)	-28	74%	-9	18	86
CCC(CC)NC(=O)/C=C/c1ccccc1Cl	1	-14%	-26	0.9	-5
COc1ccc(OC)c(NC2=NCCS2)c1	4	2%	.	-5.4	-13
CCCn1cc(S(=O)(=O)c2ccccc2)c(=O)c2cc(OCC)ccc21	.	.	.	-2.5	?
O=C(NCCCN1CCOCC1)c1cc(-c2ccccc2)nc2ccccc12	.	.	.	-2.4	-2

A run of entries from the list above, as a working copy:
SMILES	Arbovirus anti	Mtb H37Rv	YopH PTP inh	RecA intein inh	Mtb betalactam	others
COc1ccc(CC(=O)N2CCN(C)CC2)cc1	-2	0%	14	-0.3	1
COc1ccc(-c2nc3cc(C)ccn3c2NCc2ccc3c(c2)OCO3)cc1	-2	2%	.	-2.2	0
CCOc1cc(/C=N/n2cnnc2)ccc1OC(=O)c1cccc([N+](=O)[O-])c1	12	0%	-25	1.0	4
CCN(CC)c1ccc(/C=C(\C#N)c2ccccn2)cc1	-16	10%	-16	-27	72
O=c1[nH]c(CSc2nc3ccccc3s2)nc2cc(Cl)ccc12	.	.	.	-3.1	-1
CN(C(=O)CSc1nnc(-c2cccc(F)c2)n1N)C1CCS(=O)(=O)C1 (stereo unspecified)	6	0%	.	-0.6	-11
CCOc1ccc(NC(=O)CSc2nc(=O)n(Cc3ccccn3)c3c2CCC3)cc1	.	.	.	1.9	-1
CN(C)c1ccc(C(=O)N2CCCC(CCC(=O)N3CCN(c4ccccn4)CC3)C2)cc1 (stereo unspecified)	.	.	.	-0.5	-3
O=P(c1ccccc1)(c1ccccc1)c1cc(Br)cc(Br)c1OCCO	.	.	.	0.3	15
O=C(N/N=C\c1ccccc1OCc1ccccc1)c1ccco1	-3	0%	-39	1.1	2
CN(C)CCN(C(=O)c1ccc2ccccc2c1)c1nc2cc3c(cc2s1)OCCO3	.	.	.	4.8	-3
COC(=O)Cc1[nH]n(-c2nc3ccccc3s2)c(=O)c1C(C)=O	-13	-2%	-30	-7.0	0
Cc1c(N=Nc2c(O)n(-c3ccc(Br)cc3)c(=O)[nH]c2=O)c(=O)n(-c2ccccc2)n1C	.	-6%	.	1.0	10

Returning to the listing, starting 2 compounds before the break.
SMILES	Arbovirus anti	Mtb H37Rv	YopH PTP inh	RecA intein inh	Mtb betalactam	others
CCCn1cc(S(=O)(=O)c2ccccc2)c(=O)c2cc(OCC)ccc21	.	.	.	-2.5	?
O=C(NCCCN1CCOCC1)c1cc(-c2ccccc2)nc2ccccc12	.	.	.	-2.4	-2
CCc1ccc(OCC(=O)Nc2ncc3c(n2)CC(C)(C)CC3=O)cc1	1	1%	-27	0.7	4
CC(NC(=O)c1ccc(NC(=O)c2ccco2)cc1)c1ccccc1 (stereo unspecified)	.	.	.	0.8	2
O=C(Nc1ccccc1)Nc1ccc(F)cc1F	-7	1%	.	1.2	-8
COc1ccc(C)cc1-n1ccn(CC(=O)Nc2ccc(Br)cc2F)c(=O)c1=O	.	.	.	-0.6	2
O=C(NCc1n[nH]c(=S)n1-c1ccc(F)cc1)c1ccc(S(=O)(=O)N2CCCC2)cc1	4	-9%	-22	2.1	-7
O=C(O)C(Cc1c[nH]c2ccccc12)NS(=O)(=O)c1ccc(Br)cc1 (stereo unspecified)	.	.	.	3.5	15
COc1ccc(-c2c(C#N)c(N)nc3sc(C(=O)c4ccccc4)c(N)c23)cc1	-7	3%	-19	-7.6	-6
CN(C)S(=O)(=O)c1ccc(C(=O)Nc2ccc(S(=O)(=O)NC3=NCCCCC3)cc2)cc1	4	3%	-21	-0.4	-7
Cc1ccc(Cl)cc1N1CCN(C(=O)c2cccc3c(=O)c(C)c(-c4ccccc4)oc23)CC1	-35	25%	-16	20	.
CCOc1ccc(OCC)c(S(=O)(=O)NCc2ccc3c(c2)OCO3)c1	3	-5%	-2	0.2	-5	Arbovirus anti repeat=-3
NC(=O)c1ccsc1NC(=O)c1coc2ccccc2c1=O	13	1%	.	.	5
COc1cccc(OCC(O)CN2CCN(c3ccccc3)CC2)c1 (stereo unspecified)	.	.	.	-0.4&-0.7	-4&-5
Cc1cccn2c(=O)c3c(nc12)N1CCc2ccccc2C1C1(C3)C(=O)NC(=O)N(C)C1=O (stereo unspecified)	-34	6%	-16	2.2	?
COc1ccc(NC(=O)CCCC(=O)c2ccccc2)cc1OC	.	.	.	5.6	-4
COC(=O)Cc1csc(NCc2ccccc2)n1	.	.	.	-1.2	1
O=C(O)c1cccc(-n2cccc2/C=N/O)c1	0	-3%	-33	-0.6	9
COc1ccccc1CCCNC(=O)C1CCC(=O)N(CCCN2CCCC2=O)C1 (stereo unspecified)	.	.	.	-7.7	0
CC/C(=C/c1sc2ccc(C)cc2[n+]1CCCS(=O)(=O)[O-])SC	-8	-5%	.	13	15
CCN(CC)CCCNc1nc(CN2CCOCC2)nc2sc3c(c12)CCC3	7	5%	.	-2.2	-13
Cc1cccc(C)c1OCc1cc(C(=O)N(Cc2c(C)nn(C)c2C)C2CC2)no1	.	.	.	2.1	8
O=C(NCCS(=O)(=O)N1CCN(c2ccccc2)CC1)c1ccccc1F	.	.	.	0.7	4
C(=NC12CN3CN(CN(C3)C1)C2)c1ccc2c(c1)OCO2	6	6%	4	5.6	-10
Cc1cccc(C(=O)NC(=S)NC(C)c2ccccc2)c1 (stereo unspecified)	.	.	.	13	3
CC(C)CSc1nc2c(c(=O)[nH]c(=O)n2C)n1CCc1ccccc1	-16	4%	-14	1.1	-8
COc1ccc(C(C(=O)NC2CCCC2)N(CC2CCCO2)C(=O)Cc2cccs2)cc1OC (stereo unspecified)	3	-4%	.	-0.9	-2
CCOC(=O)C1=C(COC(=O)c2cccc(Cl)c2)NC(=O)NC1C (stereo unspecified)	.	.	.	-0.6	7
O=C(NCc1nnc(SCC(=O)N2CCCCCC2)o1)c1ccccc1F	.	.	.	-5.4	2
O=C(Nc1nc(-c2ccccc2)cs1)C1c2ccccc2Oc2ccccc21	0	-1%	-32	-2.8	0
O=C(/C=C/c1ccc(S(=O)(=O)N2CCOCC2)cc1)NCc1ccc(Cl)cc1	0	-2%	-22	-2.0	4
CC(=O)Nc1ccc(/C(C)=N/Nc2nc(Nc3cccc4ccccc34)nc(N3CCOCC3)n2)cc1	13	?	-17	-1.8	94
Oc1ccc(-c2nc3ccc4ccccc4c3c3c2CCC3)cc1O	-33	1%	-55	6.6	25
Cc1ccc(C(=O)Nc2nnc(-c3ccco3)o2)cc1	-17	?	-19	2.2	89
O=C(CCCC(=O)N(CC(=O)NC1CCCCC1)Cc1ccccc1)Nc1ccccn1	6	-4%	7	1.4	-4
COC(=O)c1cccc(NCN2C(=O)c3ccccc3C2=O)c1	-1	2%	-47	-2.7	13
COC(=O)c1ccccc1NC(=O)Nc1nnc(N2CCC(C)CC2)s1	27	-4%	-28	-0.3	-8
O=C(Nc1ccccc1F)C1CCCN(S(=O)(=O)c2ccc(-n3cnnn3)cc2)C1 (stereo unspecified)	.	.	.	-5.2	1
Fc1ccc(C(c2ccc(F)cc2)N2CCN(C/C=C/c3ccccc3)CC2)cc1	-14	7.9µM*	-40	21	99
CCCCOc1ccc(-c2cc(C(F)(F)F)c(C#N)c(SCC(=O)O)n2)cc1	14	6%	.	-30	21
N#Cc1ccsc1NC(=O)COC(=O)c1ccc2ccccc2c1	2	1%	0	2.1	1
O=[N+]([O-])/C(C(Cl)=C(Cl)Cl)=C(/NC1CC1)Sc1ccccc1	3	-10%	.	0.9	-5
COc1ccccc1NC(=O)C/C(N)=N/O	2	7%	-13	-1.1	-5
CC(=O)c1ccc(Sc2nnc(C)s2)c([N+](=O)[O-])c1	-3	-9%	.	.	15
COc1ccc(CN2C(=O)c3cccnc3C2=O)cc1S(=O)(=O)N(C)Cc1ccco1	.	.	.	0.2	-13
O=C1/C(=C/c2ccc(Cl)cc2)NC(=S)N1Cc1cccnc1	-7	9%	.	5.3	-8
Cc1ccc(S(=O)(=O)N(C)C)cc1NC(=O)Nc1c(-c2ccccc2)noc1C	.	1%	.	-5.4	-1
CN1CCN(C(=O)/C(=C/c2ccc(N(C)C)cc2)NC(=O)c2ccccc2)CC1	.	.	.	-4.3	0
COC(=O)Nc1ccc(S(=O)(=O)N(CCO)CCO)cc1	3	-9%	-11	-0.8	-2
CCn1c(SCc2cccc(C)c2)nnc1-c1ccc(C)cc1	-7	17%	16	4.9	-6
CSc1nc2c(c(=O)[nH]c(=O)n2C)n1Cc1ccccc1Cl	.	.	.	-3.3	-12
COC(=O)c1ccccc1NC(=O)Nc1cccs1	-2	-7%	-4	0.5	-5
Cc1ccc2[nH]c(=O)c(CN(Cc3ccccc3)Cc3nnnn3C3CCCC3)cc2c1	7	17%	-32	1.5	3
Cc1ccccc1C(=O)OCC(=O)N(C)c1ccccc1	.	.	.	-1.8	-2
CCOc1ccccc1N(C)C(=O)CCS(=O)(=O)c1ccc2c(c1)NC(=O)CO2	.	.	.	1.9	-5
CCOc1cccc(C(=O)Nc2ccc(NC(=O)c3cc4ccccc4o3)c(OC)c2)c1	.	.	.	-1.0	2
CC1CN(S(=O)(=O)c2cccc(C(=O)OCC(=O)c3cccs3)c2)CC(C)O1 (stereo unspecified)	0	-7%	-16	-0.1	-8
CC(C)C(=O)NNC(=O)C1CC1(c1ccccc1)c1ccccc1 (stereo unspecified)	.	.	.	1.4	-4
Cn1cccc1Cc1nnc(SCC(=O)Nc2ccc3c(c2)OCO3)n1CCc1ccccc1	-26	-8%	-17	2.2	3
O=C1OC(OC(=O)c2ccccc2Br)C(N2CCOCC2)=C1Cl (stereo unspecified)	6	-9%	-19	19	-3
O=C(CCCSc1nc2ccccc2[nH]1)NCc1ccc(Cl)cc1	16	8%	-25	2.9	5
COc1ccc(CCNS(=O)(=O)c2cccc(S(=O)(=O)N3CCCC3)c2)cc1OC	5	2%	-35	-2.4	.

(next part)
SMILES	Arbovirus anti	Mtb H37Rv	YopH PTP inh	RecA intein inh	Mtb betalactam	others
COC(=O)c1cccc(NC(=O)CSc2ncn[nH]2)c1	-5	-1%	11	.	-2
CCN(CC)/C(=N\S(=O)(=O)c1ccccc1C)c1ccccc1	.	.	.	-9.4	-5
CC(C)c1c(O)nc(SCCN(C)C)[nH]c1=O	3	4%	-8	2.2	7
C=C(Cl)COc1ccc2c(CC)cc(=O)oc2c1	-3	13%	24	.	10
CCCCCN(C(=O)COC(=O)CSc1ccc([N+](=O)[O-])cc1)c1c(N)n(CCCC)c(=O)[nH]c1=O	.	.	.	-0.8	-4
O=C(Nc1ccc(N2C(=O)C3CCCCC3C2=O)cc1Cl)c1cccs1 (stereo unspecified)	7	3%	.	2.1	2
CCCn1c(O)c(N=NC(=O)CNC(=O)/C=C/c2ccc(OC)cc2)c2ccccc21	.	.	.	-0.9	6
CCn1c(SCc2ccc(OC)c(F)c2)nc2ccccc2c1=O	.	.	.	11	9
